High-throughput results: PubChem, National Center for Advancing Translational Sciences (NCATS)
Sfp PPTase inh – inhibitors of Bacillus subtilis Sfp phosphopantetheinyl transferase; Q9F4F7; Biochemical Sfp PPTase activity, qHTS; Potency, µM, for the others: max response, negative = inhibition, usual class: inhibitors; hit rate 3.5% among 310,000; active = well fitted inhibition curve with a large enough effect; inconclusive = small, poorly fitted or top-dose-only effect, or another doubt; inactive = no such curve, though single readings can be large or run the other way;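 also: the enzyme is Sfp with the accession as filed and its product quenches rhodamine fluorescence; potency is read from the fitted curve at half-maximal effect; 0% = enzyme reaction without inhibitor and -100% = no enzyme wells; top concentration of the series not given in the record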
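Fluorescence-quenching assay: 15 nM Sfp-PPTase preincubated 15 min at room temperature with compound, then 5 uM rhodamine-CoA and 12.5 uM BHQ-2-labelled YbbR peptide added. Fluorescence (ex 525/em 598 nm) read at start and after 30 min; difference gives rate.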
ClpP mod – qHTS Assay for Activators of ClpP | ATP-dependent Clp protease proteolytic subunit (Bacillus subtilis (strain 168)), P80244 | purified B. subtilis ClpP, FRET peptide cleavage, 20 min | Potency, µM (top dose mostly 57.5 µM), inactives show at the highest dose activity change, negative = active | hit rate 1.9% among 340,000 | AID 651965, 2013; active = well fitted falling curve with a large enough effect; inconclusive = small, poorly fitted or top-dose-only effect; inactive = no such curve, though single readings can be large or run the other way; also: potency is read from the fitted curve at half-maximal effect; the source files actives as falling curves though it sought activators and does not explain the sign; nearly all actives have a fitted effect of over 65% in size; many hits overshoot -100%
Target sequence (P80244 whole entry, looked up): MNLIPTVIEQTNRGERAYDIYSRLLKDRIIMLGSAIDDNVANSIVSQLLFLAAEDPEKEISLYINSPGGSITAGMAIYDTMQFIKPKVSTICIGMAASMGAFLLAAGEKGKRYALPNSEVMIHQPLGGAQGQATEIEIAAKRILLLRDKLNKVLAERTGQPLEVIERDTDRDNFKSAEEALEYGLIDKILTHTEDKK
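FRET quenching reversal measured ClpP activation: 10 microg/mL B. subtilis ClpP at pH 8 with the FRET-FV decapeptide, read at 430 nm after 320 nm excitation. The 20-min minus 0-min signal was scaled between DMSO/no-enzyme wells and ADEP (5.8 microM final).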
TRPML1 agonist – activates the human TRPML1 channel. Q9GZU1. TRPML1-expressing cells, Ca2+ dye fluorescence, FDSS; host cell line not named in the record; reference of the full effect not given here. activation, % (no concentration beside the values). hit rate 0.12% among 410,000. AID 624414; in the data active = activation above about 50%; inconclusive = about 30% to 50%; inactive = below about 30%; also: 0% is about no effect; the text of the record puts the active cut at 80%
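Calcium fluorescence on an FDSS kinetic reader gave the read-out. Tet-induced TRPML1-DL cells were plated overnight, dye-loaded (Ca8 with quencher, 45-90 min, room temperature, dark), then read 110 s after compound addition, and again 110 s after 4uM final 54-4 (EC80).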
TRPML1 blocker – blocks the human TRPML1 channel | TRPML1-inducible cells, Ca2+ dye fluorescence, FDSS; active compounds read low; inhibition of EC80 agonist-evoked calcium signal | activity change, negative = inhibition, % (concentration not given with the values) | hit rate 0.02% among 390,000 | AID 624415; in the data active means activity change below about -50%; inconclusive means about -30% to -50%; inactive means above about -30%;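 also: stimulus is agonist 54-4 at its EC80 concentration; % is scaled to controls: 0 for no effect and ±100 for the full control effect; the text of the record puts the active cut at -80%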
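Calcium fluorescence in TRPML1-DL cells induced overnight with Tet: a 110 s read after compound pin addition, then a 110 s antagonist read after challenge with 54-4 at 4 uM final (EC80).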
PINK1 modulator – modulators of PINK1 expression; PINK1 immunofluorescence, high-content cytometry, 24 h; Potency, µM (highest dose often 76.6 µM), inactives show at the top dose activation (PINK1 increase), usual class: activators; hit rate 0.2% among 410,000; AID 624263; active = well fitted activation curve with a large enough effect; inconclusive = small, poorly fitted or top-dose-only effect; inactive = flat fitted curve, though single readings scatter; cell line not stated here;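 also: potency is read from the fitted curve at half-maximal effect; % of control where 0% means no effect; nearly all actives have a fitted effect of over 65% in size; a mitochondrial uncoupler was the plate control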
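Cells are seeded, rested 12 hours, then given compound at five concentrations or DMSO for 24 hours. After fixation, blocking and antibody staining, PINK1 amount and mitochondrial localization are scored; CCCP serves as control.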
TRPV1 potentiator – human TRPV1 potentiation; TRPV1-expressing cells, Fluo-8 calcium influx, capsaicin EC20 potentiation; host cell line not named in the record; control for the full effect not named in the record; Q8NER1; potentiation, % at 8.33 µM; hit rate 0.02% among 320,000; AID 540277; active means potentiation above 80%; inconclusive means 30% to 80%; inactive means below 30%; also: 0% is about no effect
Target sequence (Q8NER1 whole entry, looked up): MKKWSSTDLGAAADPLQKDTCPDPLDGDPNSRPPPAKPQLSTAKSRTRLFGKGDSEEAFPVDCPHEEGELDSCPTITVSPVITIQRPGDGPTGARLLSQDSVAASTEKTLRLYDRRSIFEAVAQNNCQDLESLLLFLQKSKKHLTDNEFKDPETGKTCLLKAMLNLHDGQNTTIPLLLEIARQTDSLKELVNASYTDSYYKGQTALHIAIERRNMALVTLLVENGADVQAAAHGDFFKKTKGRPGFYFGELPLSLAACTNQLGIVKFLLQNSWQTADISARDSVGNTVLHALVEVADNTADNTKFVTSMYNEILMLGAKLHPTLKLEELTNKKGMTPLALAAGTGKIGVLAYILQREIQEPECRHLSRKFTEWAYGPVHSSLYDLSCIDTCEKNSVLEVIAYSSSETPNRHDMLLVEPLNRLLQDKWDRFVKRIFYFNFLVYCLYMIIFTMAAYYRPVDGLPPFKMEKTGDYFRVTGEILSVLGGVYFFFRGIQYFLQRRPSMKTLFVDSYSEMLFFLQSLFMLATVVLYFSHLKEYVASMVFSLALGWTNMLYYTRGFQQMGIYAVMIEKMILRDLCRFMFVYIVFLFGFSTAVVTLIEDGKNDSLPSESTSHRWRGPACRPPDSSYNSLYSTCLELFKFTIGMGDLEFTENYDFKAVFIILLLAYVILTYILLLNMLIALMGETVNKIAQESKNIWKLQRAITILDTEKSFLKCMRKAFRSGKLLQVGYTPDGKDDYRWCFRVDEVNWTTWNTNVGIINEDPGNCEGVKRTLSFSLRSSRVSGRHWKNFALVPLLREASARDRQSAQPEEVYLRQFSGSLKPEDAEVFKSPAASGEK
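Fluo-8 calcium influx in TRPV1-expressing cells, kinetic read (ex 480/em 520 nm). Compound added and read 3 min for agonist activity, followed by capsaicin at EC20 final and 2 min further read for enhancement.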
Menin-MLL FL inh – inhibitors of human menin-MLL interaction, wild-type MLL peptide | Fluorescence polarization, fluorescein-MLL peptide displacement from menin | FP activity change, % at 61.4 µM | 290,000 tested, under 10 active | AID 1766; inconclusive = falling polarisation curve, or a change in total fluorescence; inactive = total fluorescence flat and polarisation flat or rising; no compound was filed as active; the % refers to the polarisation; negative = inhibition;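 also: % of control where 0% means no effect; inhibitors lower the polarisation; unlabelled MLL peptide was the positive control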
* = called active by the depositor; ? = inconclusive; / = no result given; & = joins results of further samples; [ ] = remark or other dose.

SMILES	Sfp PPTase inh	ClpP mod	TRPML1 agonist	TRPML1 blocker	PINK1 modulator	TRPV1 potentiator	Menin-MLL FL inh
O=C(Nc1cccc(Cl)c1)c1nc[nH]c1C(=O)NCc1ccccc1	/	213%	0.7	-6	9.1%	-9	/
COc1cc2[nH]c(=O)n(Cc3ccc(C(=O)N4CCC(N5CCCCC5)CC4)cc3)c(=O)c2cc1OC	10%	5.0%	-0.2	23	0.7%	13	-4.7
CC(C)CNc1ncnc2c1ncn2[C@H]1CN(Cc2cccc3ccccc23)C[C@@H](CO)O1	/	-0.6%	-0.1	/	0.7%	/	/
CC(=O)Nc1ccc(S(=O)(=O)NC2=NCN(CCO)CN2)cc1	/	-0.1%	0.3	4	-0.8%	/	/
Cc1ccccc1NS(=O)(=O)c1ccc(NC(=O)c2ccco2)cc1	1%	1.5%	-0.3	-2	-1.2%	-2	-0.8
CC(C)CC(=O)Nc1nnc(S(=O)(=O)N2c3ccccc3CC2C)s1 (configuration not stated)	5%	0.9%&2.5%	-0.4&-0.4	3&-6	0.5%&0.9%	-7	9.0
CCCc1ccc(C(=O)[C@@H]2[C@@H](C(C)=O)N3c4ccc(F)cc4C=C[C@@H]3[C@@]23C(=O)Nc2ccccc23)cc1	4%	/	1.3	8	3.1%	8	3.2
COc1ccc(C(=O)N/N=C/c2c(C)[nH]c(=O)[nH]c2=O)cc1	4%	-8.0%	-0.2	-8	-0.2%	-12	-8.7
COc1ccc(OCC(=O)NCCC2=CCCCC2)c([N+](=O)[O-])c1	6%	-0.7%	1.0	18	6.1%	-11	-1.3
COc1ccc(NC(=O)CSc2nc(=O)n(CCN3CCOCC3)c3c2CCCC3)c(OC)c1	/	-1.1%	-0.9	15	1.0%	-1	/
Cc1ccc(CN2CC(C(=O)Nc3cc(C)ccn3)CC2=O)cc1 (configuration not stated)	/	/	-0.1	37	12%	0	/
CC(C)(C)Cc1nc(-c2ccc(Cl)cc2)no1	-6%	0.5%	-0.2	6	5.4%	-1	1.2
COC(=O)N1[C@H](Cc2ccccc2)C=C[C@]1(C)C(=O)NCc1ccccn1	-8%&8%	1.3%	-0.6	-8	3.0%	16	-1.8&3.8
COc1cc(/C=C(/C#N)C(=O)Nc2ccc(Cl)cc2)ccc1Oc1nc(Cl)ncc1F	?	0.2%	/	/	0.3%	-9	?
COC(=O)C(CCSC)NC(=O)Cn1ncc2c(=O)oc3ccc(C)cc3c21 (configuration not stated)	5%	1.4%	-0.7	-5	0.8%	-21	-0.5
C/C(=N/NC(=O)c1ccoc1C)c1cccc(NC(=O)C(F)(F)F)c1	3%	-0.3%	0.0	-9	0.4%	7	1.6
O=C(NCCN1C(=O)S/C(=C/c2ccccc2)C1=O)C1CC(=O)N(Cc2ccccc2)C1 (configuration not stated)	/	2.2%	-0.3	0	-0.5%	1	/
COc1ccc(OC)c(Nc2ccc(C(=O)O)cc2[N+](=O)[O-])c1	14%	/	0.2	-18	0.7%	1	1.4
COc1ccc2c(CC(=O)NNC(=O)c3ccccc3F)coc2c1	/	/	1.2	-10	-1.1%	/	/
O=S(=O)(c1ccccc1)N1N=C(c2cccs2)CC1c1ccc(F)cc1 (configuration not stated)	10%	-0.7%	-1.2	-9	-0.4%	11	6.1
CCCCOc1ccc(C(=O)NCC2(c3ccccc3)CCOCC2)cc1	-7%	-0.3%	3.4	6	-1.5%	?	1.0
CCCN(CCC)C(=O)CSc1nc2ccsc2c(=O)n1NC(=O)c1ccccc1	9%	-2.9%	0.9	-3	-1.3%	-8	0.6
COc1ccccc1N1CCN(C(=O)c2cc(=O)c3cc(C)ccc3o2)CC1	-2%	0.8%	4.1	-10	7.6%	26	2.7
CCN(CC)CCN1C(=O)C(=O)/C(=C(/O)c2ccc3c(c2)CC(C)O3)C1c1ccc(OC)cc1 (configuration not stated)	22%	/	-0.5	-13	2.4%	-9	4.3
COc1cc(/C=N/Nc2nncn2N)ccc1OCc1c(C)no[n+]1[O-]	71µM*	-0.3%	-0.6	33	1.7%	21	0.6
Other results
SMILES	Sfp PPTase inh	ClpP mod	TRPML1 agonist	TRPML1 blocker	PINK1 modulator	TRPV1 potentiator	Menin-MLL FL inh
CCc1c(C)nc(N2CCN(Cc3ccc4c(c3)OCO4)CC2)[nH]c1=O	4%	-0.5%	/	/	2.6%	?	0.3
Cc1ccc2cn[nH]c2c1N	-3%	/	0.1	12	-0.1%	6	-1.0
O=C(NCCCN1CCOCC1)c1cccc(S(=O)(=O)Nc2ccc(F)cc2)c1	/	-1.3%	1.3	23	4.3%	-1	/
FC(F)(F)c1nnc2ccc(Cl)nn12	2%	-0.3%	-0.2	23	-1.3%	3	-0.1
COc1cc(NC(=O)c2nc(-c3ccncc3)no2)cc(OC)c1OC	/	0.6%	-0.1	-2	-2.0%	/	/
CCCN1C(=O)C(Cc2nc3ccccc3c(=O)n2-c2ccccc2)c2cc(C)ccc21 (configuration not stated)	-15%	-6.7%&-2.3%	3.8&1.0	57&31	2.1%&0.0%	-6	1.2
CC1CC(C)CN(C(=O)c2cccc(S(=O)(=O)NCc3ccccc3)c2)C1 (configuration not stated)	/	0.8%	-0.4	9	1.9%	/	/
CCCCOc1cccc(C(=O)N(Cc2cccs2)C2CCS(=O)(=O)C2)c1 (configuration not stated)	1%	0.7%	0.7	7	1.1%	3	-1.3
COc1ccccc1/C=N\Nc1cn[nH]c(=O)c1Cl	8%	/	1.3	12	1.4%	17	4.9
O=C(NC1CCCCC1)c1cc(C2CC2)nn1-c1ccccc1	/	0.1%	1.4	-4	2.7%	-5	/
CCn1c(CNc2ccc(F)cc2)nnc1SCC(=O)OC1CCCCC1	15%	0.6%	-0.5	-8	/	-7	2.0
O=c1[nH]c(C2C3CC4CC(C3)CC2C4)nc2ccccc12 (configuration not stated)	-5%	1.4%	0.1	33	17%	-25	-2.5
Cc1ccc(CNC(=O)Cn2cc(C(F)(F)F)ccc2=O)cc1	14%	-1.4%	0.4	13	11%	17	6.7
Cc1ccc(-c2ccc3c(c2)O[C@H](CN(C)C(=O)CC2CC2)[C@H](C)CN([C@@H](C)CO)S3(=O)=O)cc1	/	-2.5%	-0.3	-16	-0.5%	/	/
CC(C)CCNC(=O)CCC(=O)N1Cc2ccccc2Oc2ncccc21	/	-2.8%	-0.1	5	1.8%	/	/
O=C(CCN1C(=O)C2CCCCC2C1=O)Nc1cc(F)ccc1F (configuration not stated)	15%	-2.4%	-0.1	5	1.2%	1	-7.8
COc1ccc(C(C)=O)cc1Cn1c(C)c(C(=O)NCc2ccc3c(c2)OCO3)sc1=O	/	-3.5%	-0.3	/	-0.1%	/	/
N#C/C(=C\c1ccc(OCC(N)=O)cc1)C(=O)NC1CC1	20%	0.6%	0.1	-10	-0.4%	11	0.8
CC(C)c1ccc(C(=O)N(c2ccccn2)C(C)c2ccco2)cc1 (configuration not stated)	2%	0.7%	-0.3	-8	-0.6%	-9	-2.2
Cc1cccc2c(N)c3c(nc12)N(C)CC3	-9%	4.7%	0.4	1	2.4%	-7	1.3
CCN(CC)CCCNC1CCS(=O)(=O)C1 (configuration not stated)	22%	-0.6%	-0.8	-8	-2.5%	-5	2.3
COc1ccc(C[C@H]2CN3C(=NC[C@@H]3Cc3ccccc3)N2C[C@H](C)NC(=O)CCC2CCCCC2)cc1	-18%	/	/	/	/	2	2.4
COc1ccc(C(C#N)=C2C=C(Cl)C(=NO)C=C2Cl)cc1	/	1.8%	1.6	-5	6.3%	/	/
O=C1OCC2=C1C(c1cccc(Cl)c1)CC(=O)N2c1ccc(C(F)(F)F)cc1 (configuration not stated)	/	0.0%	0.2	-7	-3.8%	/	/
Cc1ccc(-n2ncc3c(=O)n(CC(=O)N4CCN(c5ccccc5)CC4)cnc32)cc1C	-6%	-0.4%	-0.1	16	0.4%	5	-0.4
Continuation.
SMILES	Sfp PPTase inh	ClpP mod	TRPML1 agonist	TRPML1 blocker	PINK1 modulator	TRPV1 potentiator	Menin-MLL FL inh
C/C(=N\N=C1\NC(=O)CC(C(=O)O)S1)c1cccs1 (configuration not stated)	-2%	-0.3%	-0.4	-4	-2.2%[38.3 µM]	/	3.5
Cn1ncc([N+](=O)[O-])c1C(=O)n1nnc2ccccc21	11%	-1.3%	-0.3	7	0.8%	0	1.1
CCOC(=O)C1=CCN(S(=O)(=O)c2ccc(F)cc2)C1c1cccc(Cl)c1 (configuration not stated)	/	-3.6%	0.5	/	1.8%	/	/
NC(=O)NOCc1ccccc1F	5%	/	-0.3	-10	-1.9%	-5	1.8
Clc1ccc(OCc2nn[nH]n2)cc1	8%	0.3%	/	/	3.1%	-8	2.3
O=C(COC(=O)c1ccco1)Nc1ccc2c(c1)OCO2	-21%	-1.1%	-0.7	5	0.5%	-19	2.3
COc1ccc(N2C(=O)CCC2(C#N)c2ccc(OC)cc2)cc1 (configuration not stated)	21%	0.7%	1.0	4	2.1%	10	7.7
CC(=O)Nc1ccc(Oc2ncccn2)c(Cl)c1	1%	0.6%	-0.1	9	1.7%	1	-2.7
Cc1ccc(C(=O)CN(Cc2ccccc2)C2=NCCS2)cc1	8%	-1.5%	-0.8	20	2.2%	30	-2.0
Cc1cc(N/N=C/c2ccccc2Br)nc2ccccc12	?	-10.0%	6.6	44	14%	1	0.1
O=C(Nc1ccc2ccccc2c1[N+](=O)[O-])c1ccccc1	/	2.0%	2.7	0	7.5%	/	/
CCC1CCCCN1C(=O)Cn1c(=O)oc2ccccc21 (configuration not stated)	5%	-1.4%	-0.8	-18	0.0%	18	1.3
Cc1cc(C)n2nc(CCc3nc4nc(C)cc(C)n4n3)nc2n1	9%	/	/	/	/	2	1.7
COc1ccc(/C=N/NC(=S)NC2CCS(=O)(=O)C2)cc1OC (configuration not stated)	56µM*	0.2%	0.1	-6	/	-3	-0.5
CCOC(=O)N1CCC(NC(=O)Cn2ncc3c4ccccc4n(C)c3c2=O)CC1	-11%	-9.5%	0.4	5	1.6%	9	0.0
O=C1CCCN2N=C(SCC(=O)Nc3ccc(F)cc3F)SC2=N1	8%	/	-0.4	-20	-0.1%	8	-1.6
CN(Cc1cccc(F)c1)C(=O)CSc1nnnn1C1CC1	/	/	1.1	6	1.6%	18	/
